Assay outcomes as filed in PubChem.
HIV Env fusion: inhibitors of HIV-1 Env-driven cell-cell fusion, primary screen, HeLa-JRFL effector, CEM21 target cells, luciferase; inhibition, % at 12.3 µM; 360,000 tested, 1.1% active;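 active = mean replicate inhibition score of at least 50 and every replicate individually at or above 50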;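 note: 0% = plate neutral controls and 100% = maraviroc near 300 nM; one replicate is shown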
* marks the source's active call; other numbers are inactive results; [ ] = dose if it differs, or a comment.

SMILES	HIV Env fusion
C[C@H](CO)N1C[C@H](C)[C@@H](CN(C)Cc2ccc3c(c2)OCO3)Oc2ccc(NC(=O)CCCN(C)C)cc2C1=O	39.0[16.7 µM]
CNC[C@@H]1OCCCC[C@H](C)Oc2ccc(N(C)C)cc2C(=O)N([C@@H](C)CO)C[C@@H]1C	3.2[16.7 µM]
C[C@@H]1CN([C@@H](C)CO)C(=O)c2cc(NC(=O)CCCN(C)C)ccc2O[C@H]1CN(C)S(C)(=O)=O	12.7[16.7 µM]
C[C@@H]1CCCCO[C@@H](CN(C)Cc2ccc(Cl)c(Cl)c2)[C@H](C)CN([C@H](C)CO)C(=O)c2cc(N(C)C)ccc2O1	18.0[16.7 µM]
Cc1noc(C)c1NC(=O)Nc1ccc2c(c1)C(=O)N([C@@H](C)CO)C[C@H](C)[C@@H](CN(C)S(=O)(=O)c1ccccc1)O2	6.8[16.7 µM]
C[C@H](NC(=O)C[C@H]1C[C@@H]2c3cc(NC(=O)C4CCOCC4)ccc3O[C@@H]2[C@@H](CO)O1)c1ccccc1	-1.4[16.7 µM]
CO[C@@H]1CN(C)C(=O)c2ccc(NC(=O)Nc3cccc(F)c3)cc2OC[C@H](C)N(C(C)=O)C[C@H]1C	12.9[16.7 µM]
Cc1noc(C)c1NC(=O)N(C)C[C@H]1OCc2ccccc2-c2ccccc2C(=O)N([C@H](C)CO)C[C@@H]1C	-1.7[16.7 µM]
C[C@H](CO)N1C[C@H](C)[C@H](CN(C)Cc2cccc(F)c2)OCc2ccccc2-c2ccccc2C1=O	74.7*[16.7 µM]
C[C@H](CO)N1C[C@H](C)[C@H](CN(C)Cc2ccc(C(=O)Nc3ccccc3N)cc2)OCCCC[C@H](C)Oc2ccc(N(C)C)cc2C1=O	21.1[16.7 µM]
COc1ccc(CNC(=O)c2cc3c(c(-c4cccc(-c5cccc(C#N)c5)c4)n2)[C@@H](CCO)N([S@](=O)C(C)(C)C)C3)cc1	-3.8[16.7 µM]
COc1cccc(S(=O)(=O)N[C@@H]2CC[C@H](CCN)O[C@@H]2CO)c1	9.2[16.7 µM]
O=C(/C=C(\Nc1ccc(Br)c(F)c1)c1ccccc1)c1ccccc1	27.6
COc1ccc(S(=O)(=O)N2C[C@H](O)COC[C@@H]3O[C@H](CC(=O)N[C@H]4CCN(Cc5ccccc5)C4)CC[C@H]32)cc1	-12.1[16.7 µM]
CC(C)NC(=O)N(C)C[C@H]1OCCCC[C@H](C)Oc2ccc(NC(=O)CCC(F)(F)F)cc2C(=O)N([C@@H](C)CO)C[C@H]1C	-3.2[16.7 µM]
Cc1cc(N2CCN(CC(C)(C)O)C[C@@H]2C)ccc1N1CCN(CC(C)(C)O)[C@H](C)C1	4.4
O=C(N[C@@H]1C=C[C@H](CC(=O)N2CCCCC2)O[C@H]1CO)c1ccc2c(c1)OCO2	16.6[16.7 µM]
O=C(C[C@@H]1CC[C@@H]2[C@H](COC[C@H](O)CN2C(=O)c2ccncc2)O1)NC1CCC1	-7.5[16.7 µM]
C[C@H]1CN([C@@H](C)CO)C(=O)Cc2cc(NS(C)(=O)=O)ccc2O[C@H]1CN(C)Cc1ccc(-c2ccccc2)cc1	2.4[16.7 µM]
C[C@H]1CCCCO[C@H](CN(C)CC2CC2)[C@@H](C)CN([C@@H](C)CO)C(=O)c2cc(NC(=O)c3ccccc3)ccc2O1	18.5[16.7 µM]
COc1ccccc1CNC(=O)C[C@H]1CC[C@H]2[C@@H](COC[C@H](O)CN2Cc2cccc(-c3ccncc3)c2)O1	3.8[16.7 µM]
C[C@@H]1CCCCO[C@@H](CN(C)C(=O)CCC(F)(F)F)[C@@H](C)CN([C@@H](C)CO)C(=O)c2cc(NS(=O)(=O)c3ccc(Cl)cc3)ccc2O1	13.1[16.7 µM]
O=C(N[C@H](C(=O)N1CCC[C@H]1C(=O)NC1CCCC1)C1CCCCC1)c1ccccc1	-6.9
CNC[C@H]1OCCCC[C@@H](C)Oc2ccc(NC(=O)Nc3ccc(F)cc3)cc2C(=O)N([C@H](C)CO)C[C@@H]1C	-19.1[16.7 µM]
C/C=C/c1ccc([C@H]2[C@H](CO)N(C(=O)c3cnccn3)C23CN(C(=O)C2CC2)C3)cc1	-1.3[16.7 µM]

An excerpt of these results, with values ahead of the structure:
HIV Env fusion,Compound
-3.2[16.7 µM],CC(C)NC(=O)N(C)C[C@H]1OCCCC[C@H](C)Oc2ccc(NC(=O)CCC(F)(F)F)cc2C(=O)N([C@@H](C)CO)C[C@H]1C
4.4,Cc1cc(N2CCN(CC(C)(C)O)C[C@@H]2C)ccc1N1CCN(CC(C)(C)O)[C@H](C)C1
16.6[16.7 µM],O=C(N[C@@H]1C=C[C@H](CC(=O)N2CCCCC2)O[C@H]1CO)c1ccc2c(c1)OCO2
-7.5[16.7 µM],O=C(C[C@@H]1CC[C@@H]2[C@H](COC[C@H](O)CN2C(=O)c2ccncc2)O1)NC1CCC1
2.4[16.7 µM],C[C@H]1CN([C@@H](C)CO)C(=O)Cc2cc(NS(C)(=O)=O)ccc2O[C@H]1CN(C)Cc1ccc(-c2ccccc2)cc1
18.5[16.7 µM],C[C@H]1CCCCO[C@H](CN(C)CC2CC2)[C@@H](C)CN([C@@H](C)CO)C(=O)c2cc(NC(=O)c3ccccc3)ccc2O1
3.8[16.7 µM],COc1ccccc1CNC(=O)C[C@H]1CC[C@H]2[C@@H](COC[C@H](O)CN2Cc2cccc(-c3ccncc3)c2)O1
13.1[16.7 µM],C[C@@H]1CCCCO[C@@H](CN(C)C(=O)CCC(F)(F)F)[C@@H](C)CN([C@@H](C)CO)C(=O)c2cc(NS(=O)(=O)c3ccc(Cl)cc3)ccc2O1
-6.9,O=C(N[C@H](C(=O)N1CCC[C@H]1C(=O)NC1CCCC1)C1CCCCC1)c1ccccc1
-19.1[16.7 µM],CNC[C@H]1OCCCC[C@@H](C)Oc2ccc(NC(=O)Nc3ccc(F)cc3)cc2C(=O)N([C@H](C)CO)C[C@@H]1C
-1.3[16.7 µM],C/C=C/c1ccc([C@H]2[C@H](CO)N(C(=O)c3cnccn3)C23CN(C(=O)C2CC2)C3)cc1

Remaining list, next part.
SMILES	HIV Env fusion
CO[C@@H]1CC[C@H]2CCOc3c(C#N)cccc3C(=O)N(C)CCCC(=O)N(C)C[C@@H]1O2	13.8[16.7 µM]
CC(C)NC(=O)Nc1ccc2c(c1)C(=O)N([C@H](C)CO)C[C@@H](C)[C@@H](CN(C)Cc1ccc(-c3ccccc3)cc1)O2	33.2[16.7 µM]
O=C(C[C@H]1C[C@H]2c3cc(NC(=O)Cc4ccncc4)ccc3O[C@H]2[C@H](CO)O1)NCc1cccc(F)c1	-11.7[16.7 µM]
CCCCCCCCN1C(=O)N(Cc2ccc(OC)cc2)S(=O)(=O)c2ccc(F)cc21	17.8
CN1CCN(C(=O)c2cc3c(c(-c4cccc(-c5ccc(C(=O)N(C)C)cc5)c4)n2)[C@H](CCO)N([S@@](=O)C(C)(C)C)C3)CC1	4.7[16.7 µM]
CN(C)C(=O)c1cccc(-c2ccc3n(c2=O)C[C@@H]2N[C@H]3[C@H](C(=O)NC3CCC3)[C@H]2CO)c1	-4.6[16.7 µM]
NCCCC(C(=O)O)N(C(=O)OCc1ccccc1)C(=O)OCc1ccccc1 (stereo not given)	-37.2
C[C@H](CO)N1C[C@H](C)[C@H](CN(C)Cc2ccncc2)OCc2ccccc2-c2ccccc2C1=O	-18.3[16.7 µM]
COc1ccc2c3c([nH]c2c1)[C@@H](CO)N(S(C)(=O)=O)CC31CN(CC2CC2)C1	7.4[16.7 µM]
COc1ccc(CN(C)C[C@H]2Oc3ccc(NC(=O)Cc4ccccc4)cc3CC(=O)N([C@@H](C)CO)C[C@H]2C)cc1	-13.5[16.7 µM]
Cc1[nH]c2ccccc2c1CC(=O)Nc1ccc(Nc2cccnc2)c(-c2ccc(OC(F)(F)F)cc2)c1	-15.7
O=C(N[C@H]1CC[C@H](CCNC(=O)c2cnccn2)O[C@@H]1CO)c1ccc2c(c1)OCO2	-1.4[16.7 µM]
CC(C)OC(=O)N(C)C[C@H]1OCc2ccccc2-c2ccccc2C(=O)N([C@H](C)CO)C[C@H]1C	11.0[16.7 µM]
O=C(NCC[C@H]1CC[C@@H](NC(=O)c2cccnc2)[C@@H](CO)O1)Nc1ccc(C(F)(F)F)cc1	15.3[16.7 µM]
Cc1ccc(S(=O)(=O)NCC[C@@H]2CC[C@H](NC(=O)CC3CC3)[C@H](CO)O2)cc1	-4.4[16.7 µM]
CO[C@@H]1CN(C)C(=O)c2ccc(NC(C)=O)cc2OC[C@@H](C)N(Cc2ccc(-c3ccccn3)cc2)C[C@H]1C	-26.4[16.7 µM]
CO[C@@H]1CC[C@H]2CCOc3c(C#N)cccc3C(=O)N(C)C[C@@H](OC)[C@@H](C)C(=O)N(C)C[C@H]1O2	5.3[16.7 µM]
COc1cccc(S(=O)(=O)N(C)C[C@@H]2OCc3ccccc3-c3c(n(C)c4ccccc34)C(=O)N([C@H](C)CO)C[C@@H]2C)c1	55.3*[16.7 µM]
Cc1ccc(S(=O)(=O)N(C)C[C@H]2Oc3ccc(NS(=O)(=O)c4cn(C)cn4)cc3CC(=O)N([C@@H](C)CO)C[C@H]2C)cc1	6.9[16.7 µM]
C[C@@H]1CN([C@@H](C)CO)C(=O)c2cc(C#C[C@@H](C)O)cnc2O[C@H]1CN(C)C(=O)Cc1ccncc1	-42.8[16.7 µM]
C[C@H]1CN([C@@H](C)CO)C(=O)CCCn2cc(nn2)CO[C@H]1CN(C)C(=O)Nc1ccc(C(C)(C)C)cc1	-14.3[16.7 µM]
Cc1ccccc1-c1ccc2c(c1)O[C@@H](CN(C)C(=O)Nc1ccc(F)cc1)[C@H](C)CN([C@H](C)CO)S2(=O)=O	5.0[16.7 µM]
COc1ccc(CN(C)C[C@H]2Oc3ccc(NC(=O)Cc4ccccc4)cc3C(=O)N([C@H](C)CO)C[C@@H]2C)cc1	-10.4[16.7 µM]
COC(=O)C[C@H]1CC[C@H]2[C@@H](COC[C@H](O)CN2C(=O)Nc2ccccc2OC)O1	18.2[16.7 µM]
COc1ccc(S(=O)(=O)N(C)C[C@@H]2Oc3ncc(/C=C/c4ccccc4)cc3C(=O)N([C@@H](C)CO)C[C@H]2C)cc1	3.6[16.7 µM]
The results go on.
SMILES	HIV Env fusion
COCCNC(=O)C[C@H]1CC[C@H]2[C@@H](COC[C@@H](O)CN2Cc2cccc(-c3ccncc3)c2)O1	6.4[16.7 µM]
COc1ccc(CN(C)C[C@H]2Oc3ccc(NC(=O)NC(C)C)cc3C(=O)N([C@H](C)CO)C[C@@H]2C)cc1	9.2[16.7 µM]
O=C(C[C@@H]1C[C@@H]2c3cc(NC(=O)c4cccnc4)ccc3O[C@@H]2[C@H](CO)O1)NCCN1CCCCC1	-6.1[16.7 µM]
C[C@H]1CCCCO[C@H](CN(C)S(=O)(=O)c2ccc(F)cc2)[C@@H](C)CN([C@@H](C)CO)C(=O)c2cc(NC(=O)Cc3ccccc3)ccc2O1	-18.9[16.7 µM]
C[C@@H]1CN([C@@H](C)CO)C(=O)c2cc(N(C)C)ccc2O[C@@H](C)CCCCO[C@@H]1CN(C)C(=O)Nc1ccc2c(c1)OCO2	25.1[16.7 µM]
CCCCCCCCN1C(=O)[C@@H](CC(=O)NCc2ccc(C)o2)C[C@@]2(C(=O)OC)C1=C[C@H](C(C)(C)C)O[C@@H]2C	38.0
COCCN1Cc2cc(C(=O)OC)c3c(c2C1=O)c1cc(F)ccc1n3C(=O)c1ccccc1	20.0
COc1ccccc1CCn1cnc(-c2ccc(Br)cc2)c1CC(C)C	16.9
COc1cccc(CNC(=O)[C@H]2CCCN2C(=O)[C@H]2CCCN2)c1	24.4
COc1ccccc1CNC(=O)C[C@@H]1C[C@@H]2c3cc(NC(=O)Nc4ccc(C(F)(F)F)cc4)ccc3O[C@@H]2[C@H](CO)O1	-4.7[16.7 µM]
C=CCO[C@H]1CN(C(=O)OC)[C@@H]2C[C@H]1Oc1ccccc12	3.2
COc1ccc(C2CC(=O)C(c3ccccc3OC)=CN2Cc2ccccc2)cc1 (stereo not given)	6.5
CO[C@H]1CN(C)C(=O)c2cc(NC(=O)Nc3cccc(Cl)c3)ccc2OC[C@@H](C)NC[C@H]1C	10.2[16.7 µM]
C/C=C/c1cccc(-c2nc(C(=O)NCc3cccc(OC)c3)cc3c2[C@H](CCO)N([S@@](=O)C(C)(C)C)C3)c1	15.5[16.7 µM]
CCCCc1c(-c2ccccc2OC)ncn1Cc1ccc(Cl)cc1Cl	12.3
CO[C@H]1CN(C)C(=O)c2cc(C#N)ccc2OC[C@H]2O[C@@H](CC[C@H]2OC)CCN(C)C(=O)[C@@H]1C	25.5[16.7 µM]
C[C@@H]1CN([C@H](C)CO)C(=O)c2cc(NC(=O)C3CCCCC3)ccc2O[C@H]1CN(C)C(=O)NC1CCCCC1	-8.5[16.7 µM]
COCCNC(=O)C[C@H]1CC[C@@H]2[C@H](COC[C@@H](O)CN2Cc2cccc(-c3ccncc3)c2)O1	11.8[16.7 µM]
COc1ccccc1S(=O)(=O)N[C@H]1CC[C@H](CC(=O)NCc2cccc(F)c2)O[C@@H]1CO	6.0[16.7 µM]
CN1CCN(C(=O)c2cc3c(c(-c4cccc(-c5ccc(C(=O)N(C)C)cc5)c4)n2)[C@@H](CCO)N([S@](=O)C(C)(C)C)C3)CC1	-2.6[16.7 µM]
O=C(C[C@@H]1C=C[C@H](NC(=O)c2cccc(F)c2)[C@H](CO)O1)Nc1nccs1	-19.7[16.7 µM]
CSCCC(NC(=O)OCc1ccccc1)C(=O)NC(Cc1c[nH]c2ccccc12)C(=O)O (stereo not given)	-10.7
COC(=O)C[C@H]1C[C@H]2c3cc(NC(=O)CN(C)C)ccc3O[C@H]2[C@@H](CO)O1	-10.0[16.7 µM]
CO[C@H]1CC[C@@H]2CCN(C)C(=O)[C@@H](C)N(C)C(=O)c3cccc(C#N)c3OC[C@@H]1O2	8.9[16.7 µM]
CCN=C1NC(c2ccccc2C(F)(F)F)C(C(=O)OC)=C(C)N1Cc1ccc(C(F)(F)F)cc1 (stereo not given)	-192.2
C[C@@H]1CN(c2ccc(N3CCNC[C@@H]3C)cc2C#N)C[C@H](C)O1	-9.2
O=C(C[C@@H]1C[C@H]2c3cc(NC(=O)C4CCC4)ccc3O[C@H]2[C@@H](CO)O1)NCc1cccc(F)c1	4.9[16.7 µM]
Cc1ccc(S(=O)(=O)Nc2ccc3c(c2)C(=O)N(C)[C@H]2CC[C@@H](CC(=O)NCCc4ccncc4)O[C@H]2CO3)cc1	11.3[16.7 µM]

Some of the compounds tested; rates above refer to the full screens.
